# Source: PubChem
# HIV Env fusion = HIV envelope-mediated fusion inhibition. HeLa-JRFL Env/CEM21 cell fusion, luciferase. inhibition, % at 12.3 µM. actives 1.1% (n = 360,000). AID 651610;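 active = mean replicate inhibition score of at least 50 and every replicate individually at or above 50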;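 also: 0% = plate neutral controls and 100% = maraviroc near 300 nM; one replicate is shown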
# UUG fidelity = alters start codon recognition fidelity in yeast | S. cerevisiae UUG-firefly luciferase reporter, luminescence/redox ratio | activity score, % at 18.7 µM | actives 0.13% (n = 350,000);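 active = replicate mean at a twofold rise or more, about +100% in these data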;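 also: firefly luciferase made from a UUG start codon reports start codon fidelity; reporter light over untreated wells divided by growth signal over untreated wells; some hits fall short of that in this replicate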
# Numbers without * were called inactive; & = joins results of further samples; [ ] = remark or other dose. The list is partial; rates above refer to the full screens.
# Second line of a record – HIV Env fusion | UUG fidelity
C[C@H]1CN([C@@H](C)CO)S(=O)(=O)c2ccc(-c3ccccc3)cc2O[C@H]1CN(C)C(=O)C1CC1
 : 17[16.7 µM] | -6
C[C@H](CO)N1C[C@H](C)[C@H](CN(C)CC2CC2)Oc2c(NC(=O)C3CCCCC3)cccc2C1=O
 : 5[16.7 µM] | -9
CCCC#Cc1ccc([C@H]2[C@@H](C#N)N(C(=O)C3CCCC3)[C@H]2CO)cc1
 : 7[16.7 µM] | 3
C[C@H](CO)N1C[C@H](C)[C@H](CN(C)Cc2ccccc2)Oc2c(NC(=O)c3nc4ccccc4s3)cccc2C1=O
 : -6[16.7 µM] | 4
O=C(O)C[C@H]1CC[C@@H](NC(=O)c2ccccc2F)[C@@H](CO)O1
 : 7[16.7 µM] | -12
O=C(C[C@@H]1CC[C@@H](NC(=O)Nc2cc(F)ccc2F)[C@@H](CO)O1)NCCCN1CCOCC1
 : 3[16.7 µM] | -6
C[C@H]1CN([C@@H](C)CO)C(=O)c2cc(/C=C/c3ccccc3)cnc2O[C@H]1CN(C)C(=O)C1CCC1
 : 4[16.7 µM] | 11
C[C@@H]1CN([C@@H](C)CO)C(=O)c2cc(NC(=O)NC3CCCCC3)ccc2O[C@H]1CN(C)C(=O)Nc1ccccc1
 : 7[16.7 µM] | 14
Cc1cccc(S(=O)(=O)N[C@H]2CC[C@H](CCn3cc(-c4ccccn4)nn3)O[C@H]2CO)c1
 : -36[16.7 µM] | 3
C[C@@H]1CN([C@@H](C)CO)S(=O)(=O)c2ccc(C#CCC3CCCC3)cc2O[C@H]1CN(C)Cc1ccc(C(=O)O)cc1
 : -41[16.7 µM] | 1
CCC(=O)N(C)C[C@@H]1Oc2ncc(C#Cc3cccnc3)cc2C(=O)N([C@H](C)CO)C[C@H]1C
 : -3[16.7 µM] | -2
COc1cccc(S(=O)(=O)N(C)C[C@@H]2Oc3cc(C#CCN(C)C)ccc3S(=O)(=O)N([C@@H](C)CO)C[C@H]2C)c1
 : -7[16.7 µM] | 16
COCC(=O)Nc1ccc2c(c1)C(=O)N(C)[C@H]1CC[C@@H](CC(=O)Nc3ccccc3)O[C@H]1CO2
 : 5[16.7 µM] | 3
O=C(C[C@H]1CC[C@@H]2[C@H](COC[C@H](O)CN2C(=O)c2ccc(F)cc2)O1)NC1Cc2ccccc2C1
 : -6[16.7 µM] | 0
C[C@@H]1CN([C@@H](C)CO)C(=O)Cc2cc(NC(=O)Nc3ccc4c(c3)OCO4)ccc2O[C@H]1CN(C)C(=O)Nc1ccc(F)cc1
 : 15[16.7 µM] | 6
CCCN(C)C[C@H]1Oc2cc(-c3ccccc3C)ccc2S(=O)(=O)N([C@H](C)CO)C[C@H]1C
 : 13[16.7 µM] | 1
O=C(N[C@@H]1C=C[C@@H](CC(=O)N2CCCCC2)O[C@H]1CO)c1cccc(F)c1
 : -15[16.7 µM] | 0
CC(C)CC#Cc1cnc2c(c1)C(=O)N([C@@H](C)CO)C[C@@H](C)[C@@H](CN(C)C(=O)C1CCCCC1)O2
 : 7[16.7 µM] | 3
C[C@H]1CN([C@@H](C)CO)C(=O)c2cccc(NS(C)(=O)=O)c2O[C@H]1CN(C)S(=O)(=O)c1ccc(F)cc1
 : -21[16.7 µM] | -2
O=C(CC1CC1)Nc1ccc2c(c1)[C@@H]1C[C@H](CC(=O)NC3CCCCC3)O[C@@H](CO)[C@@H]1O2
 : -7[16.7 µM] | -17

# Profiles as entered above. Screens in order: HIV Env fusion, UUG fidelity
# C[C@H]1CN([C@@H](C)CO)C(=O)c2cccc(NS(C)(=O)=O)c2O[C@H]1CN(C)S(=O)(=O)c1ccc(F)cc1 is listed as -21[16.7 µM], -2
# CCCC#Cc1ccc([C@H]2[C@@H](C#N)N(C(=O)C3CCCC3)[C@H]2CO)cc1 is listed as 7[16.7 µM], 3
# COCC(=O)Nc1ccc2c(c1)C(=O)N(C)[C@H]1CC[C@@H](CC(=O)Nc3ccccc3)O[C@H]1CO2 is listed as 5[16.7 µM], 3
# C[C@@H]1CN([C@@H](C)CO)C(=O)c2cc(NC(=O)NC3CCCCC3)ccc2O[C@H]1CN(C)C(=O)Nc1ccccc1 is listed as 7[16.7 µM], 14
# Cc1cccc(S(=O)(=O)N[C@H]2CC[C@H](CCn3cc(-c4ccccn4)nn3)O[C@H]2CO)c1 is listed as -36[16.7 µM], 3

# New compounds follow:
# Second line of a record – HIV Env fusion | UUG fidelity
C[C@H](CO)N1C[C@H](C)[C@@H](CN(C)C)Oc2cc(C#Cc3ccncc3)ccc2S1(=O)=O
 : 20[16.7 µM] | 0
C[C@@H]1CN([C@@H](C)CO)C(=O)c2cc(C#CC3CCCC3)cnc2O[C@H]1CN(C)S(C)(=O)=O
 : 0[16.7 µM] | 10
CCC(=O)N1C[C@@H](C)[C@H](OC)CN(C)C(=O)c2cc(NC(=O)Nc3cccc(F)c3)ccc2OC[C@@H]1C
 : 7[16.7 µM] | 32
C[C@@H]1CN([C@@H](C)CO)C(=O)c2cc(NS(=O)(=O)c3cn(C)cn3)ccc2O[C@@H](C)CCCCO[C@@H]1CN(C)C(=O)Cc1ccccc1
 : 13[16.7 µM] | -4
CCC(=O)N(C)C[C@H]1Oc2ncc(-c3ccccc3C)cc2C(=O)N([C@@H](C)CO)C[C@H]1C
 : -12[16.7 µM] | 2
C[C@@H]1CCCCO[C@H](CN(C)CC2CC2)[C@H](C)CN([C@@H](C)CO)C(=O)c2cc(NS(=O)(=O)c3ccc(Cl)cc3)ccc2O1
 : 6[16.7 µM] | 8
CCC(=O)Nc1ccc2c(c1)C(=O)N(C)C[C@H](OC)[C@@H](C)CN(Cc1ccccn1)[C@H](C)CO2
 : 0[16.7 µM] | -27
O=C(C[C@H]1CC[C@@H](NC(=O)Nc2ccc3c(c2)OCO3)[C@H](CO)O1)NCc1ccccc1
 : 21[16.7 µM] | -1
Cc1noc(C)c1NC(=O)Nc1ccc2c(c1)CC(=O)N([C@@H](C)CO)C[C@H](C)[C@@H](CN(C)C(=O)Nc1ccc3c(c1)OCO3)O2
 : 9[16.7 µM] | 48
C[C@@H]1CN([C@@H](C)CO)S(=O)(=O)c2ccc(C3=CCCCC3)cc2O[C@H]1CN(C)S(=O)(=O)c1ccc(F)cc1
 : 46[16.7 µM] | -15
C[C@@H]1CCCCO[C@H](CN(C)C(=O)Nc2ccc(F)cc2)[C@@H](C)CN([C@H](C)CO)C(=O)c2cc(NC(=O)Cc3ccccc3)ccc2O1
 : -63[16.7 µM] | -4
CC(C)NC(=O)Nc1ccc2c(c1)C(=O)N([C@H](C)CO)C[C@@H](C)[C@@H](CN(C)S(=O)(=O)c1ccccc1)OCCCC[C@H](C)O2
 : -11[16.7 µM] | -1
C[C@@H]1CN([C@@H](C)CO)S(=O)(=O)c2ccc(C#CCC3CCCC3)cc2O[C@@H]1CN(C)C
 : 4[16.7 µM] | 12
CCCC(=O)Nc1ccc2c(c1)C(=O)N(C)[C@@H]1CC[C@@H](CC(=O)NCCCN(C)C)O[C@@H]1CO2
 : -11[16.7 µM] | -19
O=C(C[C@@H]1CC[C@H]2[C@@H](COC[C@H](O)CN2CCC(F)(F)F)O1)NCc1ccc(Oc2ccccc2)cc1
 : 1[16.7 µM] | -9
COc1ccc(NC(=O)N(C)C[C@H]2OCCCC[C@@H](C)Oc3ccc(NC(=O)CCC(F)(F)F)cc3C(=O)N([C@H](C)CO)C[C@H]2C)cc1
 : 28[16.7 µM] | 46
C[C@@H]1CCCCO[C@H](CN(C)CC2CCCCC2)[C@@H](C)CN([C@H](C)CO)C(=O)c2cc(NS(C)(=O)=O)ccc2O1
 : 2[16.7 µM] | -14
C[C@H](CO)N1C[C@H](C)[C@@H](CN(C)Cc2ccc(C(=O)O)cc2)Oc2c(NC(=O)c3cnccn3)cccc2C1=O
 : -11[16.7 µM] | 10
C[C@H]1CN([C@@H](C)CO)S(=O)(=O)c2ccc(C#Cc3ccccc3)cc2O[C@@H]1CN(C)C(=O)C1CC1
 : 29[16.7 µM] | -29
Cc1noc(C)c1S(=O)(=O)Nc1ccc2c(c1)C(=O)N([C@H](C)CO)C[C@@H](C)[C@@H](CN(C)C(=O)Nc1ccccc1)OCCCC[C@@H](C)O2
 : -5[16.7 µM] | 3
C[C@@H]1CN([C@H](C)CO)C(=O)Cc2cc(NS(=O)(=O)c3ccc(F)cc3)ccc2O[C@@H]1CN(C)Cc1ccc(C(F)(F)F)cc1
 : 22[16.7 µM] | 5
O=C(C[C@H]1C=C[C@H](NC(=O)Nc2ccc(F)cc2)[C@H](CO)O1)NCc1cccc(F)c1
 : -15[16.7 µM] | -7
COc1ccc(NC(=O)Nc2cccc3c2O[C@@H](CN(C)S(=O)(=O)c2ccccc2)[C@@H](C)CN([C@@H](C)CO)C3=O)cc1
 : -6[16.7 µM] | -1
CC(C)C#Cc1ccc([C@@H]2[C@@H](CO)N(C(=O)c3ccccn3)[C@H]2C#N)cc1
 : -19[16.7 µM] | 18
C[C@@H]1CCCCO[C@@H](CN(C)CC2CCCCC2)[C@@H](C)CN([C@@H](C)CO)C(=O)c2cc(N(C)C)ccc2O1
 : -12[16.7 µM] | 43
C[C@@H]1CCCCO[C@H](CN(C)S(=O)(=O)c2cccs2)[C@H](C)CN([C@H](C)CO)C(=O)c2cc(NC(=O)Nc3ccc(F)cc3)ccc2O1
 : 4[16.7 µM] | -14
Cc1ccc(S(=O)(=O)Nc2ccc3c(c2)C(=O)N([C@@H](C)CO)C[C@@H](C)[C@@H](CN(C)C(=O)NC(C)C)O3)cc1
 : -5[16.7 µM] | 14
C[C@@H]1CN([C@H](C)CO)C(=O)c2cccc(NS(=O)(=O)c3ccc(F)cc3)c2O[C@H]1CN(C)S(=O)(=O)c1ccc(Cl)cc1
 : 19[16.7 µM] | 0
COc1ccc(NC(=O)Nc2ccc3c(c2)C(=O)N([C@@H](C)CO)C[C@H](C)[C@@H](CN(C)Cc2ccc(Oc4ccccc4)cc2)O3)cc1
 : 11[16.7 µM] | 7
COCC(=O)N(C)C[C@H]1Oc2cc(C#Cc3ccccc3)ccc2S(=O)(=O)N([C@@H](C)CO)C[C@H]1C
 : -26[16.7 µM] | 8
C[C@H]1CN([C@@H](C)CO)C(=O)c2cc(C3=CCCC3)cnc2O[C@@H]1CN(C)Cc1cccc(F)c1
 : 2[16.7 µM] | 25
CNC[C@H]1Oc2ncc(-c3ccccc3C)cc2C(=O)N([C@@H](C)CO)C[C@@H]1C
 : 25[16.7 µM] | -3
C[C@H]1CN([C@@H](C)CO)C(=O)c2cc(C#CCc3ccccc3)cnc2O[C@@H]1CN(C)C(=O)Cc1cccnc1
 : 13[16.7 µM] | -4
C[C@@H]1CN([C@@H](C)CO)C(=O)c2cc(NC(=O)Nc3ccc4c(c3)OCO4)ccc2O[C@@H](C)CCCCO[C@H]1CN(C)Cc1ccncc1
 : 20[16.7 µM] | 1
C[C@H]1CN([C@@H](C)CO)C(=O)c2cc(C#Cc3cccnc3)cnc2O[C@H]1CN(C)Cc1ccccc1
 : 4[16.7 µM] | 6
C[C@@H]1CCCCO[C@@H](CN(C)Cc2ccc(Cl)c(Cl)c2)[C@H](C)CN([C@@H](C)CO)C(=O)c2cc(NS(=O)(=O)c3ccc(Cl)cc3)ccc2O1
 : -25[16.7 µM] | 39
Cc1noc(C)c1S(=O)(=O)Nc1ccc2c(c1)C(=O)N([C@@H](C)CO)C[C@@H](C)[C@@H](CN(C)Cc1ccccc1)O2
 : -23[16.7 µM] | 11
C[C@@H]1CN([C@H](C)CO)C(=O)c2cc(C3=CCCC3)cnc2O[C@H]1CN(C)C(=O)c1ccccn1
 : -5[16.7 µM] | 0
C[C@H](CO)N1C[C@H](C)[C@H](CN(C)Cc2cccc(F)c2)Oc2cc(-c3ccc(F)cc3)ccc2S1(=O)=O
 : 49[16.7 µM] | -4
Cc1noc(C)c1S(=O)(=O)N(C)C[C@H]1OCCCC[C@@H](C)Oc2ccc(NC(=O)CCC(F)(F)F)cc2C(=O)N([C@@H](C)CO)C[C@H]1C
 : -40[16.7 µM] | 0
C[C@H](CO)N1C[C@H](C)[C@H](CN(C)C)OCCCC[C@H](C)Oc2ccc(NS(=O)(=O)c3ccc(F)cc3)cc2C1=O
 : 1[16.7 µM] | 3
C[C@H](CO)N1C[C@H](C)[C@@H](CN(C)C(=O)CCN2CCCCC2)Oc2ncc(C#Cc3ccccn3)cc2C1=O
 : -25[16.7 µM] | 8
CC(=O)N(C)C[C@H]1Oc2ncc(C#Cc3ccccc3F)cc2C(=O)N([C@H](C)CO)C[C@@H]1C
 : -2[16.7 µM] | -9
C[C@H](CO)N1C[C@H](C)[C@@H](CN(C)Cc2ccc(Cl)c(Cl)c2)OCCCC[C@H](C)Oc2ccc(NC(=O)Nc3ccccc3)cc2C1=O
 : 11[16.7 µM] | 12
C[C@@H]1CN([C@@H](C)CO)S(=O)(=O)c2ccc(C#C[C@@H](C)O)cc2O[C@@H]1CN(C)Cc1ccncc1
 : 5[16.7 µM] | 5
CC(C)NC(=O)N(C)C[C@H]1Oc2c(NS(C)(=O)=O)cccc2C(=O)N([C@H](C)CO)C[C@H]1C
 : 2[16.7 µM] | -10
C[C@H](CO)N1C[C@H](C)[C@H](CN(C)S(=O)(=O)c2ccccc2)Oc2ncc(Br)cc2C1=O
 : 37&6[16.7 µM] | 7&4
C[C@@H]1CN([C@H](C)CO)C(=O)c2cc(NC(=O)c3ccncc3)ccc2O[C@@H]1CN(C)Cc1ccc(C(F)(F)F)cc1
 : -5[16.7 µM] | -8
C[C@H](CO)N1C[C@H](C)[C@@H](CN(C)Cc2ccc(-c3ccccc3)cc2)Oc2c(NC(=O)Nc3cccc4ccccc34)cccc2C1=O
 : 1[16.7 µM] | -10
COc1ccc(NC(=O)N(C)C[C@@H]2Oc3ccc(NC(=O)Nc4cccc5ccccc45)cc3CC(=O)N([C@H](C)CO)C[C@H]2C)cc1
 : 3[16.7 µM] | 10
